Screens from PubChem.
Marburg entry inh: qHTS for inhibitors of binding or entry into cells for Marburg Virus; Marburg virus pseudotyped entry inhibition, cell reporter; control for the full effect not named in the record; about a third of the inactives were read at about 46 µM; 300,000 tested, 1.8% active; Potency, µM (doses to about 37.8 µM), for inactives: at the top dose activity change, negative = inhibition, actives largely listed as inhibitors; active = well fitted inhibition curve with a large enough effect; inconclusive = small, poorly fitted or top-dose-only effect, or effect the other way; inactive = flat fitted curve, though single readings scatter; tested in HEK293 cells; about a fifth of its hits are not listed in these tables; also: % is scaled to controls: 0 for no effect and ±100 for the full control effect; luciferase read-out
SARS PLpro yeast: qHTS of Yeast-based Assay for SARS-CoV PLP. S. cerevisiae expressing SARS-CoV PLpro, growth rescue; control for the full effect not named in the record. Potency, µM (top dose mostly 32.9 µM), for the others: at the highest dose activity, positive = growth rescue. 330,000 tested, 0.19% active. AID 485353, 2010; active means well fitted rising curve with a large enough effect; inconclusive means small, poorly fitted or top-dose-only effect; inactive means no such curve, though single readings can be large or run the other way; also: 0% is about no effect; nearly all actives have a fitted effect of over 55% in size; growth read by luminescence after 48 h
RE007 growth inh: qHTS Assay for Inhibitors of the HIV-1 protein Vpr. S. pombe RE007 Vpr strain, BacTiter-Glo ATP luminescence, 24 h; control for the full effect not named in the record. Potency, µM (titrated, usually from 92.2 µM), for the others: top-dose activity change, negative = less growth. 360,000 tested, 0.21% active. AID 651644, 2012; active = well fitted falling curve with a large enough effect; inconclusive = small, poorly fitted or top-dose-only effect; inactive = no such curve, though single readings can be large or run the other way;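 also: % is scaled to controls: 0 for no effect and ±100 for the full control effect; nearly all actives have a fitted effect of over 50% in size; the assay follows cell death caused by Vpr and the record does not say whether a fall means rescue or toxicity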
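Fission yeast RE007 carrying one integrated HIV-1 vpr copy, seeded at OD 0.01 in PMG+AL medium with 23 nL pinned compound. Grown 24 h at 30 degrees; viability read by BacTiter-Glo luminescence after 5 min.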
NS1 inh: qHTS Assay for Inhibitors of Influenza NS1 Protein Function; S. cerevisiae slowed by influenza A NS1, growth recovery by OD600; 270,000 tested, 0.4% active; Potency, µM (series often up to 46.1 µM), inactives show top-dose activity, positive = more growth; AID 2326, 2010; active means well fitted rising curve with a large enough effect; inconclusive means small, poorly fitted or top-dose-only effect; inactive means no such curve, though single readings can be large or run the other way; also: nearly all actives have a fitted effect of over 50% in size
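In this qHTS, NS1 from influenza A is expressed in budding yeast, where it slows growth. Cells are switched from glucose to 2% galactose medium (pH 6.0, -URA), treated with compound, and growth recovery is read at OD600.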
Cruzain inh noDet: qHTS Assay for Promiscuous and Specific Inhibitors of Cruzain (without detergent) | Cruzipain (Trypanosoma cruzi), P25779 | Potency, µM, without a hit: max response, negative = inhibition, most hits filed as inhibitors | 200,000 tested, 2.3% active | purified cruzain, Z-FR-AMC fluorescence, no detergent | AID 1476, 2009;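 also: plate controls were enzyme without inhibitor for no effect and buffer without enzyme for full effect; nearly all actives have a fitted effect of over 40% in size; top concentration of the series not given in the record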
Target sequence (P25779 123-467 limits assumed): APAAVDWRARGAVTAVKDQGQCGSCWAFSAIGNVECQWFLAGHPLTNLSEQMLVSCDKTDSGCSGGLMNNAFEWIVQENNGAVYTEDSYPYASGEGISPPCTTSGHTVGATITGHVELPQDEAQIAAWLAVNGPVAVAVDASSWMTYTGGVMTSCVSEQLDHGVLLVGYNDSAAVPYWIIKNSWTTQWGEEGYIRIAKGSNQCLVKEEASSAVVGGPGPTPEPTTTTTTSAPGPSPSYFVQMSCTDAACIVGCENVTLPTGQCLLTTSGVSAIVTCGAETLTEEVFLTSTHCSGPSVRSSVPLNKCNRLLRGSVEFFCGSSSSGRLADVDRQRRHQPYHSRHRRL
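Detergent-free condition (0.00005% Triton X-100) in acetate buffer pH 5.5 with DTT. 1.5 nM enzyme and compound were pre-mixed 15 min, then 2 uM Z-FR-AMC substrate added; reaction progress from fluorescence change between first and third reads (60 s).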
Cruzain Triton: qHTS Assay for Promiscuous and Specific Inhibitors of Cruzain (with detergent); Cruzipain (Trypanosoma cruzi), P25779; purified cruzain, Z-FR-AMC fluorescence, 0.01% Triton; Potency, µM, for inactives: max response, negative = inhibition, usual class: inhibitors; 200,000 tested, 0.43% active; AID 1478, 2009;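 also: plate controls were neutral wells for no effect and buffer without enzyme for full effect; nearly all actives have a fitted effect of over 40% in size; top concentration of the series not given in the record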
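In this qHTS format, compounds are incubated with 1.5 nM cruzain for 15 min at room temperature before 2 uM Z-FR-AMC is added. Release of AMC is followed at 360/450 nm, and progress is taken as the 60 s fluorescence difference.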
StopGo reporter: High Throughput Screening for Foot and Mouth Disease Virus Antivirals. 410,000 tested, 1.2% active. human cells with a luciferase reporter of 2A StopGo recoding; control for the full effect not named in the record. Potency, µM (top dose mostly 57.9 µM), for the others: top-dose signal change, negative = less light. AID 1159524, 2015; active = well fitted falling curve with a large enough effect; inconclusive = small, poorly fitted or top-dose-only effect; inactive = no such curve, though single readings can be large or run the other way; tested in HEK293T cells; also: % is scaled to controls: 0 for no effect and ±100 for the full control effect; nearly all actives have a fitted effect of over 45% in size; luciferase light after 4 h
LASV entry inh: qHTS for Inhibitors of binding or entry into cells for Lassa Virus. Lassa virus pseudotype entry inhibition, cell reporter; control for the full effect not named in the record. Potency, µM (doses to about 37.9 µM), for the others: top-dose activity change, negative = inhibition, most hits filed as inhibitors. 300,000 tested, 1.2% active; active means well fitted inhibition curve with a large enough effect; inconclusive means small, poorly fitted or top-dose-only effect, or effect the other way; inactive means flat fitted curve, though single readings scatter; tested in HEK293 cells; also: % is scaled to controls: 0 for no effect and ±100 for the full control effect; nearly all actives have a fitted effect of over 50% in size; luciferase read-out
* = called active by the depositor; ? = inconclusive; nt = no result given; & = joins results of further samples; [ ] = dose if it differs, or a comment. Unless noted, calls follow the shape of the dose curve; as a rule, active = well fitted curve in the direction sought with a large enough effect; inconclusive = small, poorly fitted or top-dose-only effect, or another doubt; inactive = no such curve, though single readings can be large; an effect the other way counts as inactive or inconclusive. Potency is read from the fitted curve at half-maximal effect. Rows are unselected. Share with any hit: about 4.6%.

SMILES	Marburg entry inh	SARS PLpro yeast	RE007 growth inh	NS1 inh	Cruzain inh noDet	Cruzain Triton	StopGo reporter	LASV entry inh
Cc1cc(NC(=O)c2cnn3c(C(F)F)cc(-c4ccccc4)nc23)no1	?	-5%	-3%	-1%	26%	-2.9%	-23%	-8%
COCCCN1C(=O)N(c2ccc(F)cc2)C(=O)C1CC(=O)Nc1ccc(OC)cc1 (stereo not drawn)	nt	-1%	-16%	0%	nt	nt	-2%	nt
Cc1c(C(=O)O)oc2ccc(S(=O)(=O)NCc3ccccc3)cc12	-4%	-2%	9%	3%	4%	1.5%	22%	3%
Cc1nc2sc(C(c3ccco3)N3CCC(C)CC3)c(O)n2n1 (stereo not drawn)	nt	0%	-7%	-111%	-1%	-3.7%	-16%	nt
O=C(NC1CCCCC1)c1cc(-c2ccco2)on1	-23%	-4%	0%	-7%	0%	0.1%	18%	?
CCC(=O)Nc1nnc(S(=O)(=O)N(C)Cc2ccc(Cl)cc2)s1	nt	nt	nt	nt	-27%	-1.2%	3%	6%[46.1 µM]
O=C(CCc1nnc(CCCCc2ccccc2)o1)NCCN1CCOC1=O	-1%[46.1 µM]	-5%	0%	-31%	nt	nt	15%	?
CCCCNC(=O)CCC(=O)Nc1ccc2nc(N3CCOCC3)cc(C)c2c1	9%	-7%	-23%	2%	4%	-2.6%	20%	2%
CCOC(=O)c1oc2ccccc2c1CN1CC(C)OC(C)C1 (stereo not drawn)	-11%[46.1 µM]	1%	-12%	2%	nt	nt	-23%	?
Cc1ccc(NC(=O)CSc2ncc(S(=O)(=O)c3ccc(C(C)C)cc3)c(=O)[nH]2)cc1C	?	nt	nt	nt	2%	0.2%	-7%	nt
COc1ccc(C(=O)NCCSc2ccccn2)cc1	?	-2%	-18%	1%	-8%	-0.4%	?	14µM*
Cc1ccc(C(=O)N2CCCCCC2)cc1S(=O)(=O)N1CCOCC1	13%[46.1 µM]	1%	-11%	-3%	nt	nt	36%	1%[46.1 µM]
CSc1ncc(CN2CCCC(C(=O)c3ccccc3SC)C2)cn1 (stereo not drawn)	nt	-1%	-19%	2%	nt	nt	?	nt
O=C(O)CCc1ccc(-c2ccccc2)n1CC(=O)Nc1cccc(C(F)(F)F)c1	nt	-3%	2%	?	nt	nt	-17%	nt
COc1ccc2oc(-c3ccc(C)c(NC(=O)c4ccc(N5CCCCC5)c([N+](=O)[O-])c4)c3)nc2c1	-7%[46.1 µM]	nt	nt	nt	-21%	-1.4%	-5%	-23%[46.1 µM]
CCOC(=O)CC1=C(C(=O)OCC)C(c2cc(OC)c(OC)cc2OC)C(C#N)=C(N)O1 (stereo not drawn)	0%	2%	-3%	-4%	13%	-0.5%	-1%	-15%
COC(=O)CNC(=O)CNC(=O)Nc1ccccc1Cl	6%	16%	14%	-1%	8%	4.2%	5%	8%
Cc1ccccc1-c1nc(CS(=O)(=O)CC(=O)N2CCCCC2)c(C)o1	?	14%	6%	5%	nt	nt	-1%	?
Cn1c(=O)n(Cc2ccccc2Cl)c2ccccc21	0%[46.1 µM]	0%	4%	-1%	nt	nt	-9%	-8%
CCOc1ccc(OCCOCCn2c(-c3ccc(Cl)cc3)nc3ccccc3c2=O)cc1	27%[46.1 µM]	nt	nt	nt	2%	-2.1%	-6%	0%[46.1 µM]
CNC(=O)CSc1nnc(-c2ccco2)n1-c1cc(C)ccc1C	nt	-1%	-2%	7%	nt	nt	-15%	nt
N/C(CCCN1CCCCC1)=N/O	4%	4%	-5%	0%	-10%	5.1%	7%	-12%
CC(C)NC(=O)COC(=O)c1cc(=O)[nH]c2ccccc12	-1%	10%	3%	-20%	-4%	-2.7%	-15%	4%
COc1cccc2c1Oc1ncccc1N(C(=O)CCC(=O)NCc1ccc(OC(C)C)cc1)C2	nt	nt	nt	nt	20%	-1.2%	-13%	21%[46.1 µM]
N#Cc1ccc(-c2cn(-c3ccccc3)c3[n+]2CCCS3)cc1	9%[46.1 µM]	2%	-4%	8%	nt	nt	-4%	2%
Nc1c(C(=O)N/N=C/c2ccc(OCc3ccccc3)cc2)cnn1-c1ccccc1	nt	0%	6%	-6%	nt	nt	?	nt
CCn1ncc(/C=C2/SC(=S)NC2=O)c1C	-4%	-23%	?	-44%	-9%	-8.3%	26%	2%
Cc1ccc(OC(=O)c2sc3ncn(C)c(=O)c3c2C)cc1	?	-3%	35%	nt	nt	nt	46%[activator]	29%
CNS(=O)(=O)c1cccc(C(=O)OCC(=O)N2CCc3ccccc3C2)c1	-2%	3%	2%	-8%	4%	1.3%	30%	23%
CCN(CC)C(=O)CSc1nc2ccc(NC(=O)CSc3nnc(N)s3)cc2s1	?	-13%	16%	0%	-3%	-6.7%	?	?
CC(C)C(C)(C#N)NC(=O)COC(=O)C1CCN(S(=O)(=O)c2ccc3c(c2)OCCO3)CC1 (stereo not drawn)	?	nt	16%	nt	nt	nt	-23%	20%
Cc1nc2ccc(C(=O)N/N=C/c3ccc(O)cc3)cc2[nH]1	7%[46.1 µM]	-3%	21%	-14%	nt	nt	8%	0%
O=C(c1noc2c1CCCCC2)N1CCN(c2cccc(Cl)c2)CC1	nt	nt	nt	nt	2%	-7.6%	-22%	-17%[46.1 µM]
Cc1cc(S(=O)(=O)N(Cc2ccccc2F)C2CC2)ccc1-n1cnnn1	-5%[46.1 µM]	1%	-5%	-8%	nt	nt	56%[activator]	?
N/C(=N\[N+](=O)[O-])N1CCN(C(=O)c2ccccc2)CC1	10%[46.1 µM]	0%	6%	nt	nt	nt	-8%	5%[46.1 µM]
CC(O/N=C/c1ccc(OC(F)F)cc1)C(=O)Nc1cccc(S(=O)(=O)N2CCOCC2)c1 (stereo not drawn)	?	-16%	-4%	14%	3%	-6.9%	-11%	-12%
CN(C(=O)c1oc(=O)c2ccccc2c1-c1ccccc1)c1cccc(Cl)c1	-11%[46.1 µM]	nt	nt	nt	7%	-5.4%	-19%	1%[46.1 µM]
Clc1ccc(OCC#CCN2CCCC2)cc1	?	0%	-13%	2%	nt	nt	6%	20%[46.1 µM]
Nc1cc(C(Cl)=C(Cl)Cl)c(S(N)(=O)=O)cc1S(N)(=O)=O	nt	nt	7%	nt	-4%&-9%	4.8%&-0.5%	-25%&7%	nt
CCOc1ccc(S(=O)(=O)N2CCOCC2)cc1NC(=O)CN1C(=O)NC(CC)(c2ccccc2)C1=O (stereo not drawn)	-2%	-6%	6%	-5%	nt	nt	1%	-8%
O=C(OCC1CCCO1)c1ccc2c(c1)N(Cc1ccccc1F)C(=O)c1ccccc1S2(=O)=O (stereo not drawn)	nt	nt	nt	nt	12%	-2.9%	3%	3%[46.1 µM]
CCOC(=O)CC(NC(=O)c1cc2ccccc2oc1=O)c1cccc([N+](=O)[O-])c1 (stereo not drawn)	11%	15%	-10%	0%	-4%	-4.3%	-9%	?
CCCCN(CC)CCNc1ncnc2onc(-c3ccc(Cl)cc3)c12	-30%[46.1 µM]	nt	nt	nt	-7%	0.4%	-4%	9%[46.1 µM]
O=C1Cc2ccccc2C(=O)N1CCc1ccccc1	nt	-1%	-18%	12%	?	?	62%[activator]	nt
Cc1cccc(C)c1NC(=O)COC(=O)c1ccc2[nH]c3c(c2c1)CCCC3	nt	0%	-3%	1%	nt	nt	-15%	nt
COc1ccc(OC)c(Nc2ncc3c(n2)CCN(Cc2cc(OC)c(OC)c(OC)c2)C3)c1	nt	nt	nt	nt	-2%	-0.2%	-24%	-6%[46.1 µM]
CCc1ccc(C2=C(C)C(N3CCC(C(=O)Nc4ccc(F)cc4)CC3)=NS2(=O)=O)cc1	nt	nt	nt	nt	?	-4.6%	-21%	?
Cc1ccc(C2C(C#N)=C(N)Oc3nc(-c4ccccc4)[nH]c32)o1 (stereo not drawn)	-15%	-6%	-3%	9%	-1%	-4.9%	-20%	-26%
O=C(NCC1CCCO1)C(c1cccnc1)N(C(=O)Cc1cccs1)c1ccccc1 (stereo not drawn)	2%	12%	3%	-3%	-5%	1.7%	nt	21%
O=C(CN(c1ccccn1)S(=O)(=O)c1ccc(F)cc1)Nc1ccccc1	?	0%	-19%	nt	nt	nt	2%	2%[46.1 µM]
Cc1c(C)n(C)c2ccc(C(=O)NCCc3ccc(Cl)cc3)cc12	nt	nt	nt	nt	?	-6.2%	-2%	16%[46.1 µM]
O=C(CNC(=O)Cc1ccccc1)NCC(=O)OCc1ccc(C(=O)c2ccccc2)cc1	10%	1%	-7%	-4%	-16%	-14%	7%	-6%
O=C(O)c1ccccc1-c1nc2ccccc2n1-c1ccccc1	?	12%	2%	25%	1%	0.7%	?	7%
COc1ccc(S(=O)(=O)N2CCCOC2CNC(=O)C(=O)NCCCN2CCOCC2)cc1 (stereo not drawn)	13%	5%	-1%	1%	nt	nt	-13%	-2%
Cn1c(=O)c2c(nc(Br)n2C/C=N/NC(N)=S)n(C)c1=O	?	27%	0%	7%	nt	nt	-8%	-2%
Cc1ccc(S(=O)(=O)c2c(C)nn(C(C)(C)C)c2OC(=O)C(C)(C)C)cc1	?	-29%	10%	-41%	22%	-4.3%	?	?
N#Cc1c(N2CCNCC2)nc(-c2ccco2)c2c1CCCC2	?	0%	3%	4%	nt	nt	-19%	-7%[46.1 µM]
Cc1cc(C)nc(N2CCC(C(=O)NC3CCCc4ccccc43)CC2)n1 (stereo not drawn)	-15%	-6%	-1%	-8%	7%	-0.3%	-18%	7%
CCOP(=O)(OCC)C(NC(=O)c1ccccc1)C(Cl)(Cl)Cl (stereo not drawn)	-2%	22%	-4%	-8%	1%	2.0%	-15%	-1%
CCc1nn(CC(=O)NCCc2ccc(SC)cc2)c(=O)c2cc3sccc3n12	-17%[46.1 µM]	nt	nt	nt	-1%	0.0%	12%	nt
